From PubChem
Rango complex inh – qHTS Assay for Inhibitors of Rango (Ran-regulated importin-beta cargo) - Importin beta complex formation; 340,000 tested, 0.031% active; AID 540263, 2011; Potency, µM (highest dose often 92.2 µM), for inactives: at the top dose inhibition of complex formation; Rango CFP/YFP FRET sensor + importin beta, 45 min; Importin subunit beta-1 (Homo sapiens), Q14974; active = rising FRET ratio curve, often small or poorly fitted; inconclusive = mostly compound fluorescence or quenching in the first reads; inactive = flat curves in all reads;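 also: potency is read from the fitted curve at half-maximal effect; 0% = DMSO wells and 100% = buffer wells lacking importin beta; nearly all actives have a fitted effect of over 15% in size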
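FRET biosensor (snurportin 1 IBB flanked by EYFP and cerulean), 50 nM, with compound 5 min, then 0.125 microM importin beta in PBS, 1 mM DTT, 0.02% Tween-20, 0.1% BSA. CFP/YFP ratio read after 45 min at room temperature; pre-read flags interference.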
GLA inh pH 4.5 – qHTS Assay for Inhibitors of Human alpha-Galactosidase at pH 4.5; Alpha-galactosidase A (Homo sapiens), P06280; purified enzyme, 4-MU-alpha-Gal fluorescence, pH 4.5; activity change, negative = inhibition, % at 105 µM; 230,000 tested, under 10 active; inconclusive = small, poorly fitted or top-dose-only inhibition, or a rising curve; inactive = flat fitted curve, though single readings scatter; no compound was filed as active;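 also: 0% = full activity with enzyme and -100% = basal without enzyme; dose as in the result columns while the protocol names 77 µM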
Target sequence (P06280 whole entry, looked up): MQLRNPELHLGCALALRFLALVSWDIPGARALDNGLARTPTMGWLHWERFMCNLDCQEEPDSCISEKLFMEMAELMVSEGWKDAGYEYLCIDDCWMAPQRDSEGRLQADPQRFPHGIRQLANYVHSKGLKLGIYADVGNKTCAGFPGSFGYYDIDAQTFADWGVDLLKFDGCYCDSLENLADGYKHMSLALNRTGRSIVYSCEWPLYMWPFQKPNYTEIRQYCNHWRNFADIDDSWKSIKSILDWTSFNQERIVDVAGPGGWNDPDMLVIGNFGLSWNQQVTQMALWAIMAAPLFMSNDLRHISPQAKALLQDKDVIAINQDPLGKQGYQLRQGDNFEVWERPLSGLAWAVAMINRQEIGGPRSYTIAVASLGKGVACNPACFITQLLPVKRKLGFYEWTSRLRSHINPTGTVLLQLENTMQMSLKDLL
miR-21 reporter – qHTS Assay for Modulators of miRNAs and/orActivators of miR-21; 340,000 tested, under 10 active; HeLa miR-21 FLuc reporter, luciferase, 48 h; Potency, µM (series often up to 38.3 µM), for the others: at the highest dose reporter change, positive = more light; active = well fitted rising curve with a large enough effect; inconclusive = small, poorly fitted or top-dose-only effect; inactive = no such curve, though single readings can be large or run the other way;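 also: % of control where 0% means no effect; miR-21 action dims this reporter so a rising signal means less miR-21 action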
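Compounds were titrated across several concentrations (up to approximately 40 uM) and incubated 48 hours with HeLa miR-21-FLuc reporter cells (miR-21 target sequence downstream of FLuc, endogenous miR-21). Readout was firefly luciferase luminescence after lytic detection reagent.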
Rango release inh – qHTS Assay for Inhibitors of RanGTP induced Rango (Ran-regulated importin-beta cargo) - Importin beta complex dissociation | Snurportin-1 (Homo sapiens) + GTP-binding nuclear protein Ran (Homo sapiens) + Importin … | Biochemical FRET Rango-importin beta, RanGTP-induced dissociation | Potency, µM (highest dose often 46.1 µM), inactives show top-dose activity change, negative = inhibition | 340,000 tested, 0.071% active; active means falling FRET ratio curve, often poorly fitted, with flat reads before Ran was added; inconclusive means other falling curves, or compound fluorescence or quenching; inactive means flat or rising ratio curve;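 also: potency is read from the fitted curve at half-maximal effect; % of control where 0% means no effect; nearly all actives have a fitted effect of over 45% in size; -100% = wells without RanGTP and RCC1; the record marks most hits as doubtful in a second field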
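FRET read at 45 min, room temperature: inhibitors block the CFP/YFP signal rise when RanGTP (0.6 uM Ran, 2 mM GTP, 0.2 uM RCC1) frees Rango (0.1 uM) from importin beta (0.25 uM). Pre-read after 5 min compound exposure flags interference.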
Active calls of the source: *; u = inconclusive; x = no result given; & = joins results of further samples; [ ] = dose if it differs, or a comment. Only part of the results is shown, so the mix of outcomes need not match the whole.

Sequence of screens – Rango complex inh, GLA inh pH 4.5, miR-21 reporter, Rango release inh
CC(=O)Nc1ccc(-c2csc(NNC(=O)c3ccc(C)cc3)n2)cc1
 : -0.7%, -18, -7%, 9%
Cc1ccc(C(=O)/C=C/N(C)C)o1
 : 0.3%, -2, -11%, 6%
N/C(=N\OC(=O)c1ccc2ccccc2c1)c1ccc(Br)cc1
 : 0.5%, -18, 0%, 15%
CCc1nc(SCc2ccc(Cl)cc2)n[nH]1
 : -1.1%, 5, -54%, -9%
CCOc1ccccc1CNS(=O)(=O)c1csc(C(N)=O)c1
 : 9.1%, x, 2%&3%, 19%
Cc1ccc(C(CC(=O)N2CCCCC2)c2ccccc2)c(O)c1C (centres undefined)
 : 0.4%, x, -4%, 6%
COC(=O)C1=C(C)NC(=S)N(C(C)=O)C1c1ccccc1 (centres undefined)
 : -2.6%, -1, -2%, 10%
O=C(NCc1ccncc1)C(=O)NCC(c1ccco1)N1CCN(c2ccccc2F)CC1 (centres undefined)
 : -0.7%, 4, -2%, 7%
Cc1ccc(-c2csc(NC(=O)CN3CCOCC3)n2)cc1C
 : 0.2%, x, -4%, -23%
C[C@H](CO)N1C[C@H](C)[C@@H](CN(C)S(C)(=O)=O)Oc2ccc(NS(=O)(=O)c3cn(C)cn3)cc2C1=O
 : 0.2%, x, x, -1%
COc1ccc(CCNC(=O)COC(=O)c2cc(OC)c(OC)cc2OC)cc1OC
 : 0.6%, -14, -3%, 1%
O=C(c1cc(-c2cccc(Cl)c2)on1)N1CCc2ccccc2C1
 : -3.4%, x, 2%, 24%
CC(=O)c1cnn(-c2c(Cl)cc(Cl)cc2Cl)c1C
 : -0.6%, 3, -1%, 35%
COc1ccc(NC(=O)C2OCCc3ccccc32)c(OC)c1 (centres undefined)
 : 2.3%, -6, 0%, 3%
O=C(/C=C/c1ccco1)NCc1ccccn1
 : -2.8%, 10, -7%, -7%
Cc1cc(C(=O)N2CCCC(N3CCN(c4cccc(C(F)(F)F)c4)CC3)C2)n[nH]1 (centres undefined)
 : 3.9%, x, -1%, 5%
Cc1cnc(C(=O)OCC(=O)Nc2ccc(Cl)cc2Cl)cn1
 : 0.7%, -2, -9%, -11%
COc1ccccc1CN1CCN(C(=O)c2cccc3ccccc23)CC1
 : 0.2%, x, x, 26%
O=S1(=O)NC(=NCCOCCO)c2ccccc21
 : -3.4%, 9, -2%, 2%
CC(C)(C)OC(=O)CC12CCCCC1NC(=O)O2 (centres undefined)
 : 4.2%, x, -1%, -2%

Continued, overlapping the part above by 4 compounds.
Sequence of screens – Rango complex inh, GLA inh pH 4.5, miR-21 reporter, Rango release inh
Cc1cnc(C(=O)OCC(=O)Nc2ccc(Cl)cc2Cl)cn1
 : 0.7%, -2, -9%, -11%
COc1ccccc1CN1CCN(C(=O)c2cccc3ccccc23)CC1
 : 0.2%, x, x, 26%
O=S1(=O)NC(=NCCOCCO)c2ccccc21
 : -3.4%, 9, -2%, 2%
CC(C)(C)OC(=O)CC12CCCCC1NC(=O)O2 (centres undefined)
 : 4.2%, x, -1%, -2%
COc1cc(C(=O)NCC(c2cccs2)N2CCOCC2)c([N+](=O)[O-])cc1OC (centres undefined)
 : -1.1%, x, x, -3%
O=C(NCC1CCN(C(=O)c2ccc([N+](=O)[O-])cc2)CC1)c1ccc([N+](=O)[O-])cc1
 : -1.7%, x, 3%, 0%
CC1(c2nnc(-c3ccc(Cl)cc3)o2)CC(c2ccc([N+](=O)[O-])cc2)=NO1 (centres undefined)
 : -6.1%, 4, 1%, 0%
CN(C)S(=O)(=O)c1cccc(COC(=O)CCNC(=O)c2ccc([N+](=O)[O-])cc2)c1
 : -0.5%, x, x, -1%
COc1ccc(OCC(=O)NNC(=O)c2ccc(-c3ccccc3)cc2)cc1
 : -0.2%, 5, 0%, 16%
CC(C)c1ccc(OCC(=O)N2CCN(C(=O)c3ccco3)CC2)cc1
 : -1.6%, x, -6%, -6%
O=C(COc1ccccc1Cc1ccccc1)Nc1cccnc1
 : -1.4%, x, x, 6%
CNC(=O)CN1C(=O)NC(Cc2c[nH]c3ccccc23)C1=O (centres undefined)
 : 1.0%, -7, -1%, -19%
Cc1cccc(-c2nnn(CC/C(N)=N/O)n2)c1
 : 3.8%, -10, -32%, -16%
COc1ccc(OC)c(Nc2ncnc3ccc(Br)cc23)c1
 : u, x, 8%, -14%
Cc1cccc(NC(=O)Cn2cnc3ccc(S(=O)(=O)N4CCC(C)CC4)cc3c2=O)n1
 : u, 1, 2%, 4%
COc1ccc(N2CC(C(=O)N/N=C/c3ccc(C)cc3)CC2=O)cc1 (centres undefined)
 : 1.9%, 3, 14%, 12%
CCn1c(=NC(=O)COc2ccccc2)sc2cccc(F)c21
 : 0.3%, -3, -21%, -8%
COc1ccc(C(C)=O)cc1COC(=O)CCNS(=O)(=O)c1ccc(C)cc1
 : 0.7%, x, x, 4%
CCN1C(=O)c2ccc(C(=O)O)cc2C1=O
 : -4.0%, -7, -4%, 0%
O=C(CSc1nc(=O)n(CCCN2CCOCC2)c2c1CCCC2)Nc1ccc(F)c(F)c1
 : 1.1%, x, x, 1%
CCC(NC(=O)CCc1nnc(-c2cc(C)on2)o1)C12CC3CC(CC(C3)C1)C2 (centres undefined)
 : -4.6%, x, -18%, -16%
Cc1ccc(C(=O)NC2CCCCCCC2)cc1S(=O)(=O)N1CCOCC1
 : -0.3%, x, x, -10%
CC(C)CCOCC1CC2(CC(C)(c3csc(N)n3)OC2=O)C(=O)O1 (centres undefined)
 : -0.3%, 14, 5%, 9%
COc1cccc(-c2nn(-c3ccc(C)cc3)cc2C(=O)NCC2CCCO2)c1 (centres undefined)
 : -0.1%, x, x, 0%

Sequence of screens – Rango complex inh, GLA inh pH 4.5, miR-21 reporter, Rango release inh
CC(C)c1nc(SCC(=O)c2ccc(F)cc2)c2ccccc2n1
 : u, -10, -5%, u
CCCCCCCCC#Cc1nc(C)ccc1OC
 : -0.9%, -9, x, 2%
COC(C#CCCN(C)C)(c1ccccc1)c1ccccc1
 : -1.3%, -3, -2%, 6%
C=CCNc1nc2ccccc2nc1NS(=O)(=O)c1ccc(Cl)cc1
 : 1.7%, x, 12%, -6%
CCOC(=O)CNC(=O)c1sc(NC(=O)c2ccccc2)nc1C
 : -2.6%, -5, -4%, 9%
Cc1ccc(NC(=O)c2cc(C(=O)c3cc(Cl)ccc3O)cn(-c3ccc(C)cc3)c2=O)cc1
 : -1.1%, -3, 15%, 0%
Cc1c(-c2ccccc2)nc(N)c(C#N)c1-c1cccs1
 : -2.5%, 0, -2%, 6%
CC(=O)N(/N=C1\Sc2ccccc2C1=O)c1ccccc1
 : -2.8%, -22, -25%, -1%
COc1ccc(CN(C(=O)c2snc(C(N)=O)c2N)C(C)C(=O)NCc2ccc(F)cc2)cc1 (centres undefined)
 : -5.0%, x, 6%, 3%
O=C(COC(=O)c1ccccc1Cl)Nc1ccc2[nH]c(=O)[nH]c2c1
 : 0.4%, x, x, -7%
COc1ccc(NC(=O)Cc2nnc(SCC(=O)c3ccccc3)n2C)cc1
 : u, x, 1%, 7%
CC(=O)c1cc2c(cc1NC(=O)CN1Cc3ccccc3C1=O)OCO2
 : -2.7%, x, 0%, u
O=C(NC(=S)Nc1cccc(S(=O)(=O)NC2=NCCC2)c1)c1cc(-c2ccco2)nc2ccccc12
 : 2.3%, -27, 21%, -15%
O=C(O)c1c[nH]c(=S)n1-c1ccc(F)cc1
 : -0.2%, -8, 1%, 1%
COC(=O)CCS(=O)(=O)c1ccc(Cl)c(Cl)c1
 : 0.9%, 9, -1%, 11%
NC(=O)C1=C[C@H](c2ccc(Br)cc2)C[C@H](OCc2ccc(CO)cc2)O1
 : -1.3%, 3, -49%, 11%
NC(N)=N/N=C/c1ccc(Cl)cc1Cl
 : 12%, -2, 18%, 3%
CCc1nc2ccccc2nc1N1CCN(S(=O)(=O)c2ccc(Cl)cc2)CC1
 : -2.6%, 4, -1%, 19%
Cc1ncc([N+](=O)[O-])n1CCOC(=O)NC(Nc1ccc(F)cc1)C(Cl)(Cl)Cl (centres undefined)
 : -2.0%, 6, 1%, -1%
Clc1ccc(-n2nnnc2-c2cnc3ccccc3c2-c2ccccc2)cc1
 : 4.2%, -27, 16%, -14%

Single records, from the list above:
NC(=O)C1=C[C@H](c2ccc(Br)cc2)C[C@H](OCc2ccc(CO)cc2)O1 reads Rango complex inh = -1.3%; GLA inh pH 4.5 = 3; miR-21 reporter = -49%; Rango release inh = 11%
COc1ccc(NC(=O)Cc2nnc(SCC(=O)c3ccccc3)n2C)cc1 reads Rango complex inh = u; GLA inh pH 4.5 = x; miR-21 reporter = 1%; Rango release inh = 7%

4 entries picked at random from those above:
Sequence of screens – Rango complex inh, GLA inh pH 4.5, miR-21 reporter, Rango release inh
CCCCCCCCC#Cc1nc(C)ccc1OC
 : -0.9%, -9, x, 2%
CC(C)c1nc(SCC(=O)c2ccc(F)cc2)c2ccccc2n1
 : u, -10, -5%, u
CC(=O)c1cc2c(cc1NC(=O)CN1Cc3ccccc3C1=O)OCO2
 : -2.7%, x, 0%, u
COc1ccc(CN(C(=O)c2snc(C(N)=O)c2N)C(C)C(=O)NCc2ccc(F)cc2)cc1 (centres undefined)
 : -5.0%, x, 6%, 3%

An excerpt from above in order of their number in miR-21 reporter, low to high.
Structure	miR-21 reporter
CC(=O)N(/N=C1\Sc2ccccc2C1=O)c1ccccc1	-25%
COC(=O)CCS(=O)(=O)c1ccc(Cl)c(Cl)c1	-1%
CC(=O)c1cc2c(cc1NC(=O)CN1Cc3ccccc3C1=O)OCO2	0%
COc1ccc(NC(=O)Cc2nnc(SCC(=O)c3ccccc3)n2C)cc1	1%
COc1ccc(CN(C(=O)c2snc(C(N)=O)c2N)C(C)C(=O)NCc2ccc(F)cc2)cc1 (centres undefined)	6%

The list continues.
Sequence of screens – Rango complex inh, GLA inh pH 4.5, miR-21 reporter, Rango release inh
Cc1ccc(Nc2nc(-c3ccccc3)cs2)nc1
 : -0.5%, x, 17%, 11%
c1ccc(Oc2cc(-n3cncn3)ncn2)cc1
 : 1.6%, -2, -37%, u
c1ccc(-c2cncnc2)cc1
 : 1.5%, x, x, 17%
O=C(N1CCOCC1)N(Cc1ccco1)CC1CCCO1 (centres undefined)
 : -2.6%, 5, -5%, 0%
Cn1c(SCC(=O)NCc2ccc3c(c2)OCO3)ncc(C(=O)Nc2ccc(F)cc2)c1=O
 : -2.7%, x, x, 1%
O=C(Nc1cc(S(=O)(=O)N2CCOCC2)ccc1N1CCCCC1)c1cc(-c2ccccn2)nc2ccccc12
 : 3.3%, 0, 0%, -5%
C=C(C)CNC(=S)N1CCN(C(c2ccccc2)c2ccccc2)CC1
 : 0.3%, -17[21.1 µM], 13%, 10%
O=C(COC(=O)Cn1cnc2ccccc21)NCCc1ccccc1
 : -2.3%, -4, -1%, 12%
CCC(=O)Nc1ccc2c(c1)nc(CN1CCCCC1)n2C
 : 0.0%, 5, -4%, -1%
CCOC(=O)C(=CNc1ccc(C#N)cc1)C(=O)OCC
 : -3.1%, -13, 1%, -10%
C=CCOC(=O)C1=C(C)NC(SCC(=O)N(CC)CC)=C(C#N)C1c1ccco1 (centres undefined)
 : 0.2%&0.1%, -9, 8%, -7%&3%
N#C/C(=C/c1ccc(OC(=O)c2ccc(Br)s2)cc1)c1nc2ccccc2[nH]1
 : u, x, x, 1%
Cc1cc(C)nc(N/N=C/c2ccc3c(c2)OCCO3)n1
 : 3.2%, 1, -32%, -9%
COC(=O)c1cc(C(=O)OC)n(Cc2ccc(C)cc2)c1C
 : -2.3%, -1, -3%, -12%
